Mtb RmlCD inh – M. tuberculosis RmlC/RmlD inhibition; P9WH09+P9WH11; RmlC+RmlD coupled enzyme assay, percent inhibition; primary screen in compound mixtures; inhibition, % at 3.6 µM; 160,000 compounds, 0.03% hits; AID 1533; in the data active = inhibition mostly above about 34%, no sharp cut-off; only retested compounds are shown here; note: some results filed as inactive read as strong as hits
Target sequence (P9WH09 whole entry, looked up): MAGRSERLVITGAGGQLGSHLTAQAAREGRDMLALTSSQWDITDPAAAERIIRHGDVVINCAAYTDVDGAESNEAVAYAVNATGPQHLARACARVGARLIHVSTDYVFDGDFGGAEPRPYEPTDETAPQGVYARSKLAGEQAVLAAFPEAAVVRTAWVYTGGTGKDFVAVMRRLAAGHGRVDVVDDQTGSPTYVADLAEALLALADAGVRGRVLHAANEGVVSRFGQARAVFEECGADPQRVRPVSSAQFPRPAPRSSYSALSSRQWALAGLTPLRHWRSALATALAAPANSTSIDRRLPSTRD
Target sequence (P9WH11 whole entry, looked up): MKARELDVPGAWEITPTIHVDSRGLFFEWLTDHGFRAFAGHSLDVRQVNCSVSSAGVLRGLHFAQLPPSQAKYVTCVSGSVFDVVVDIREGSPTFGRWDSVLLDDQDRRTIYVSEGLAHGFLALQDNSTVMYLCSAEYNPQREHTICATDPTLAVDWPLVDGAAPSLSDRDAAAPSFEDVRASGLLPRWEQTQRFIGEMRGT
Mtb RmlCD inh retest – recorded beside Mtb RmlCD inh, whose call it bears; inhibition, %; measured here: mean retest inhibition;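 single compounds in two wells; values far above 100% likely come from compound fluorescence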
* hit, by the source's call. The list is partial. The share of hits here may be higher or lower than overall.

The opening two compounds as a preview:
SMILES	Mtb RmlCD inh	Mtb RmlCD inh retest
CC(OC(=O)c1ccc(O)cc1)C(=O)Nc1cc(C(F)(F)F)ccc1Cl (configuration not stated)	49	3
CCC(=O)NNC(=O)c1cc(COc2cc(Cl)cc(Cl)c2)on1	34	-10

All compounds of this part, previewed entries included:
SMILES	Mtb RmlCD inh	Mtb RmlCD inh retest
CC(OC(=O)c1ccc(O)cc1)C(=O)Nc1cc(C(F)(F)F)ccc1Cl (configuration not stated)	49	3
CCC(=O)NNC(=O)c1cc(COc2cc(Cl)cc(Cl)c2)on1	34	-10
Cc1ccccc1-c1nc(CN2CCCC(C(=O)NCCCN3CCOCC3)C2)c(C)o1 (configuration not stated)	30	-3
CCn1c(=S)[nH]c2cc(Cl)ccc21	46	-8
Cc1ccc(C(=O)O)cc1N=Cc1cc(Br)cc(Br)c1O	45*	40*
Cc1ccc2c(c1)c1ncnc(N3CCOCC3)c1n2C	96*	51*
O=C(Nc1ccccc1)Nc1ccccc1NS(=O)(=O)c1cccs1	41	-12
O=C(Nc1nc(-c2cccnc2)cs1)c1ccc([N+](=O)[O-])cc1	39	-24
Cc1cc(C)n(/N=C/c2c[nH]c3ccccc23)c(=O)c1	61	-1
CCOC(=O)N1CCC(NS(=O)(=O)c2ccccc2)CC1	37	-5
COc1ccccc1C1CCN(c2ccc(CO)cc2[N+](=O)[O-])CC1	71	-6
CC(=O)Nc1ccc(OCc2nnc(-c3ccc(Cl)cc3)o2)cc1	34	-10
CO/N=C(/CS(=O)Cc1ccc(Cl)cc1)c1ccc(Cl)cc1 (configuration not stated)	67	4
O=C(Nc1ccc(Nc2ccccc2)cc1)Nc1ccccc1Cl	71	-11
COc1ccc(C(=O)N/N=C/c2ccc3cccc(OCc4ccccc4)c3n2)cc1	101	27
COc1ccc(N=C2S/C(=C\c3ccc(N4CCOCC4)o3)C(=O)N2CCc2c[nH]c3ccccc23)cc1	68	3
COc1cccc(C(=O)Nc2ccncc2)c1	43	-4
CCOc1ncccc1C(=O)OCc1ccc(C(=O)OC)cc1	65	24
CCOc1cc(CNC(C)C(O)c2ccccc2)cc(Cl)c1OCC (configuration not stated)	62	10
CC[C@@H](NS(=O)(=O)c1ccc(C)cc1)C(=O)Oc1ccc2c3c(c(=O)oc2c1)CCC3	46*	175*
Cc1c(NC(=O)C(C)OC(=O)c2c3c(nc4ccccc24)CCC3)c(=O)n(-c2ccccc2)n1C (configuration not stated)	33	-7
CN(C1CCCCC1)S(=O)(=O)c1cccc(C#N)c1	63	-7
O=C(N/C(=C/c1cccnc1)C(=O)N1CCOCC1)c1ccccc1Br	34	-4
Cc1ccccc1-c1coc2cc(O)ccc2c1=O	41	20
COc1ccc(C2NC(=S)NC(C)=C2C(=O)N2CCOCC2)cc1 (configuration not stated)	63	-17

One compound at a time, from the list above.
COc1ccc(C2NC(=S)NC(C)=C2C(=O)N2CCOCC2)cc1 (configuration not stated) is listed with Mtb RmlCD inh: 63; Mtb RmlCD inh retest: -17
CC(OC(=O)c1ccc(O)cc1)C(=O)Nc1cc(C(F)(F)F)ccc1Cl (configuration not stated) is listed with Mtb RmlCD inh: 49; Mtb RmlCD inh retest: 3

Quoted at random: 2 compounds from above, in no set order.
SMILES	Mtb RmlCD inh	Mtb RmlCD inh retest
Cc1cc(C)n(/N=C/c2c[nH]c3ccccc23)c(=O)c1	61	-1
CN(C1CCCCC1)S(=O)(=O)c1cccc(C#N)c1	63	-7

Going on with the list.
SMILES	Mtb RmlCD inh	Mtb RmlCD inh retest
CCC12CC3CC(C1)CC(C(=O)NNC(N)=O)(C3)C2	78	-6
COc1ccc(NC(=O)Cc2ccc(Cl)cc2)cc1NC(=O)c1ccco1	92	7
O=C(CSc1nnc(-c2ccccc2)n1-c1ccccc1)c1ccc[nH]1	51	4
Cc1cnc(NC(=O)Cc2cccs2)s1	37	4
O=C(NCc1ccncc1)C(=O)NCC1OCCCN1S(=O)(=O)c1ccccc1 (configuration not stated)	51	14
COc1cc(S(=O)(=O)N2CCCC2)c(C)cc1C	51	6
Cc1ccc(NC(=O)c2ccncc2)cc1S(=O)(=O)N(C)C	36	-2
CC(=O)Nc1ccc2c(c1)ncn2-c1ccccc1	37	-7
CCOc1ccc(C(=O)OC2CC3CCC(C2)N3C)cc1 (configuration not stated)	68	-9
CCOC(Cn1ccc(=O)[nH]c1=O)OCC	78	4
CC(C)[C@H](NS(=O)(=O)c1ccc2c(c1)OCCO2)C(=O)OCC(=O)Nc1cccc(Cl)c1Cl	52	2
Cc1nn(C)c(N)c1[N+](=O)[O-]	43	10
CCS(=O)(=O)N1CCN(C(=O)C(c2ccccc2)c2ccccc2)CC1	102	2
CCn1c(SCC(=O)NNC(=O)c2ccco2)nnc1-c1ccco1	40	-3
OCCNCc1ccc(OCc2ccc(Cl)cc2Cl)cc1	43	-12
C/C(=N\Nc1ccc2nncn2n1)c1ccc(Cl)s1	33	11
COC(=O)Cc1c(C(=O)OC)nnn1-c1ccc(OC(F)(F)F)cc1	61	-1
CCS(=O)(=O)c1cc([N+](=O)[O-])c(Sc2ccccc2NC(C)=O)s1	85	-25
CCOC(=O)c1cc(NCc2cccs2)ccc1N1CCOCC1	30	-2
CCOC(=O)c1c(NC(=O)c2ccoc2C)sc2c1CCC2	61	-24
CCCN1C(=O)N(c2cccc(C)c2)C(C)(O)CC1(C)C (configuration not stated)	43	4
Cc1nn(-c2ccccc2C(F)(F)F)c(=O)c2noc(C)c12	40	-21
Nc1nc(Cl)cc(NCCc2ccc(O)cc2)n1	35	4
O=[N+]([O-])c1ccc(C(O)C23CN4CN(CN(C4)C2)C3)cc1 (configuration not stated)	65	2
CCCCOC(=O)CSC1=C(C#N)C(c2cccnc2)C(C(=O)OCC)=C(c2ccccc2)N1 (configuration not stated)	95	11
Later entries:
SMILES	Mtb RmlCD inh	Mtb RmlCD inh retest
O=C(CNC(=O)c1ccc(Br)o1)Nc1cccc(-c2cnc3ccccc3n2)c1	48	-6
COc1ccc(N2C(=O)CC(Nc3ccc(C(=O)O)cc3)C2=O)cc1OC (configuration not stated)	31	-2
O=C(CNC(=O)c1ccccc1F)N/N=C/c1cc(Br)ccc1OCc1ccccc1	55	-10
CCOC(=O)C1CCCN(CCC(=O)Nc2cc(C)cc(C)c2)C1 (configuration not stated)	53	-9
CC(=O)c1cn(Cc2ccccc2)c(=O)[nH]c1=O	33	-12
O=C(CC1C(=O)NCCN1C(=S)Nc1ccccc1)Nc1ccc(F)cc1 (configuration not stated)	38	8
Cc1cc(C)c[n+](-c2[nH]c(=O)sc2/C=N/N=C(\N)[S-])c1	34	27
CCOC(=O)N/N=C(\CCC(=O)O)c1cccs1	79	-7
Cc1cc(NC(=S)Nc2cccnc2)ccc1Br	36	-6
N#CC(c1nc2ccccc2nc1OCCO)S(=O)(=O)c1ccccc1 (configuration not stated)	52	1
COc1ccc(/C=N\NC(=O)c2c(C)nc3ccc(Br)cn23)cc1	47	6
Cc1cc(/C=N/n2cnnc2)c(C)n1-c1cccc(Cl)c1	64	0
O=C(O)CSc1nnc(COc2cccc3ccccc23)n1Cc1ccccc1	46	-18
Cn1c(=O)c(=O)n(C)c2cc([N+](=O)[O-])c([N+](=O)[O-])cc21	45	-6
CCOC(=O)Cc1nn(C(C)C)c(=O)c2ccccc12	49	6
Cc1cccnc1CN1CCN(C(=O)c2cc(COc3ccc4ncccc4c3)on2)CC1	41	12
COc1cc(C(=O)NC(=S)Nc2ccc3c(c2)OCO3)cc(OC)c1OC	40	0
O=C(O)CCCNC(=O)/C(=C\c1ccc(Cl)cc1)NC(=O)c1ccc(Br)cc1	47	-28
Cc1ccc(N2C(=O)c3cccc4cccc(c34)C2=O)cc1	33	14
CN(CC(O)COc1ccc(S(=O)(=O)N2CCOCC2)cc1Cl)C1CCCCC1 (configuration not stated)	36	8
Cc1ccc(/C=C2\C(=O)ON=C2c2ccccc2)o1	31	-4
CCn1c(CN2C(=O)CSc3ccccc32)n[nH]c1=S	70	-10
CCCC(=O)NC(Oc1ccc(C(C)=O)cc1)C(Cl)(Cl)Cl (configuration not stated)	32	-7
COc1ccccc1NC(=O)COC(=O)/C=C/c1ccc2c(c1)OCO2	44	-1
CC1CCCCC1NC(=O)CN1C(=O)c2cccc(N)c2C1=O (configuration not stated)	66	37
Further structures
SMILES	Mtb RmlCD inh	Mtb RmlCD inh retest
CCOC(CNC(=O)c1ccc2c(c1)ncn2-c1cccc(F)c1)OCC	39	-2
CCCCOc1ccc(C(=O)N/C(=C\c2ccc([N+](=O)[O-])cc2)C(=O)OCc2ccco2)cc1	55	-1
Cn1ccnc1C1CCCCN1C(=O)c1cc(COc2ccc(F)cc2F)on1 (configuration not stated)	37	10
COc1cc(NC(=O)c2cc(C)nc3ccccc23)cc(OC)c1OC	67	-4
COc1ccc(CN2CCN(CCC(C)C)C(CCO)C2)cc1Cn1cncn1 (configuration not stated)	46	5
Cc1ccc(/C=N/NC(=O)CSc2nnc(-c3ccc(Cl)cc3)n2-c2ccc(Cl)cc2)o1	39	-3
Cn1c2ccc(F)cc2c2nnc(NN)nc21	79	-2
O=C(c1ccccc1)c1nn(-c2ccc(Cl)cc2)cc1C(=O)c1cc2ccccc2oc1=O	32	4
Cc1ccc(NC(=O)CSc2nnc(-c3cccnc3)n2CCN2CCCCC2)cc1	34	7
O=C(COC(=O)Cc1ccccc1)Nc1ccc(SC(F)F)cc1	31	-3
CCCNC(=S)Nc1ccc(Nc2ccccc2)cc1	52	-3
O=C(CN1CCN(Cc2ccccc2)CC1)N/N=C/C=C/c1ccccc1[N+](=O)[O-]	54	5
NNc1nc2ccc(Cl)cc2s1	47	-41
O=C(O)c1ccc(-n2cncn2)c([N+](=O)[O-])c1	49	-10
c1cc(-c2sc(-c3ccncc3)c(-c3ccncc3)c2-c2ccncc2)ccn1	44	-8
Cc1cc(NNC(=O)c2cccc(C(F)(F)F)c2)nc2c1c(C)nn2C	44	-11
CCCc1nc2ccccc2c(=O)n1/N=C/c1ccccc1O	106	9
CCN(CC)CCNC(=O)Cn1ncc2ccccc2c1=O	57	-4
COC(=O)CSc1nnc(CNC(=O)c2ccc(S(=O)(=O)N(C)C)cc2)n1C	44	-9
Cc1cc(OC(=O)N(C)C)nc2c1c(C)nn2C	61	-26
O=C1NC2(CCSC2)C(=O)N1CC(=O)N(Cc1ccccc1)C1CCS(=O)(=O)C1 (configuration not stated)	31	-3
COC(=O)c1ccc(C)c(NC(=S)NCc2ccc(Cl)cc2)c1	46	2
COc1ccc(Br)cc1/C=C/C(=O)NCC(=O)O	53	4
Cc1cc2ccc3ccccc3c2cc1CN(C)C	56	-7
O=[N+]([O-])c1ccc(C2(O)CN(c3ccccc3)C3=[N+]2CCS3)cc1 (configuration not stated)	37	-4

Reformatted: results already given.
SMILES: Cc1ccc(/C=N/NC(=O)CSc2nnc(-c3ccc(Cl)cc3)n2-c2ccc(Cl)cc2)o1
  Mtb RmlCD inh: 39; Mtb RmlCD inh retest: -3

SMILES: Cc1cc(OC(=O)N(C)C)nc2c1c(C)nn2C
  Mtb RmlCD inh: 61; Mtb RmlCD inh retest: -26

SMILES: O=C(CN1CCN(Cc2ccccc2)CC1)N/N=C/C=C/c1ccccc1[N+](=O)[O-]
  Mtb RmlCD inh: 54; Mtb RmlCD inh retest: 5

SMILES: O=C(c1ccccc1)c1nn(-c2ccc(Cl)cc2)cc1C(=O)c1cc2ccccc2oc1=O
  Mtb RmlCD inh: 32; Mtb RmlCD inh retest: 4

(further entries)
SMILES	Mtb RmlCD inh	Mtb RmlCD inh retest
O=C(Nc1nccs1)c1ccc(-c2cccc([N+](=O)[O-])c2)o1	94	10
CC(C)(C)c1ccc(S(=O)(=O)N2CCN(c3ncccn3)CC2)cc1	59	-10
Nc1cccnc1Oc1ccc(F)cc1	90	-27
O=C(CC12CC3CC(CC(C3)C1)C2)NC(=S)NCc1ccccc1	46	9
O=C(NCCN1C(=O)S/C(=C\c2ccc(OC(F)F)cc2)C1=O)[C@@H]1CCCN1C(=O)c1cccs1	37	-2
CNc1ccccc1C(C)(C)c1cc(-c2ccc(F)cc2)no1	109	9
C/C(CC1CC(C)(C)OC1=O)=N/Nc1nc(-c2ccccc2)cs1 (configuration not stated)	30	-4
COc1ccc(C(CCN(Cc2ccc(OC)c(OC)c2)C(=O)CCl)c2ccccc2)cc1 (configuration not stated)	61	-12
CSCCC(NC(=O)c1ccc(Cl)cc1)C(=O)OCC(=O)Nc1ccc(C#N)cc1 (configuration not stated)	79	3
COc1ccccc1NC(=O)CN1C(=O)C(C)SC(C)C1=O (configuration not stated)	85	-9
Cc1ccc2nc(C)cc(C(=O)Nc3nccs3)c2c1	65	7
Cc1ccc(S(=O)(=O)Nc2cccc(CP(=O)(c3ccccc3)c3ccccc3)c2)cc1	62	-17
O=C(O)C12CC3CC(C1)CC(n1ncc(N4CCN(c5ccccc5)CC4)c(Cl)c1=O)(C3)C2	83	3
Cc1cc(C(=O)NNc2cc(Cl)ccc2Cl)no1	43	5
Cc1cc(=O)[nH]c(N/N=C/c2c[nH]c3ccccc23)n1	55	2
COc1ccccc1N(C)S(=O)(=O)c1ccc(C(=O)Nc2nc(C)cs2)cc1	46	-6
CC(C)(C)C(=O)NNC(=O)c1ccc(Oc2cc(Cl)cc(Cl)c2)o1	53	8
C(=N\c1c(-c2ccccc2)nc2n1CCS2)/c1ccccc1	36	5
O=[N+]([O-])c1ccc(N2CCNCC2)cc1N1CCCCC1	46	8
CCc1ccc(-c2cc(-c3n[nH]c(=S)n3CC)c3ccccc3n2)cc1	57	-8
COc1cc(/C=N/NC(=O)c2ccc(Cl)c(S(N)(=O)=O)c2)ccc1OCC(N)=O	67	2
NNC(=O)c1cc2cc(OC(F)(F)F)ccc2[nH]1	31	-1
c1ccc2cc(CNCc3cccc4ccccc34)ccc2c1	32	-18
COC(OC)c1ccc(C#N)c(SCc2ccccc2)n1	66	11
Cc1ccc(C)c(C(=O)CN2C(=O)NC3(CCC(C)CC3)C2=O)c1 (configuration not stated)	44	-2
COc1ccc(CCNC(=O)CCCN2C(=O)c3ccccc3C2=O)cc1	35	-7

Assay outcomes: PubChem, PCMD
